Assay outcomes deposited in PubChem by National Center for Advancing Translational Sciences (NCATS).
Vaccinia mCherry: vaccinia inhibition (mCherry reporter). Potency, µM (series often up to 36.5 µM), for the others: top-dose activity change, negative = inhibition, usual class: inhibitors. Vaccinia virus mCherry reporter infection, fluorescence; about a quarter of the inactives have no number. 310,000 tested, 0.63% active; active = well fitted inhibition curve with a large enough effect; inconclusive = small, poorly fitted or top-dose-only effect; inactive = no such curve, though single readings can be large or run the other way; tested in A549 cells; note: nearly all actives have a fitted effect of over 35% in size; inactives centre near -10
Vaccinia Venus: inhibitors of vaccinia virus (Venus reporter); Vaccinia virus Venus reporter expression, fluorescence; Potency, µM (top dose mostly 36.5 µM), for inactives: at the top dose activity change, negative = inhibition, usual class: inhibitors; 330,000 tested, 0.46% active; AID 720580; active means well fitted inhibition curve with a large enough effect; inconclusive means small, poorly fitted or top-dose-only effect; inactive means no such curve, though single readings can be large or run the other way; tested in A549 cells; note: nearly all actives have a fitted effect of over 30% in size; inactives centre near -10
* hit, by the source's call; i = inactive; ? = inconclusive; nt = not tested or not shown; & = joins results of further samples. % is set by controls: 0 for no effect and ±100 for the full control effect; potency is the fitted concentration of half-maximal effect. Rows were taken by chance (roughly 0.82% active in at least one column).

SMILES	Vaccinia mCherry	Vaccinia Venus
COC(=O)[C@@]12OC[C@]34[C@H]([C@@H](O)[C@@H]1O)[C@@]1(C)C(=O)C(O[C@@H]5OC(CO)[C@@H](O)[C@@H](O)[C@@H]5O)=C[C@@H](C)[C@@H]1C[C@H]3OC(=O)[C@H](OC(=O)/C=C(\C)C(C)(C)OC(C)=O)[C@@H]24 (some centres undefined)	8.9µM*	8.9µM*
CCOC(=O)c1ccc(Nc2ncnc3ccc(C)cc23)cc1	nt	-12%
O=c1oc2ccc(Cl)cc2nc1/C=C(\O)c1ccco1	?	?
O=C(COC(=O)CSc1ccc2ccccc2c1)NC1CCCC1	-18%	1%
CCCOc1cccc(C2c3c(oc4ccc(F)cc4c3=O)C(=O)N2Cc2ccc3c(c2)OCO3)c1 (centres undefined)	2%	-2%
O=C(/C=C/c1ccc(Cl)c(Cl)c1)Nc1cccnc1	-11%	-4%
CCOc1ccc(C(=O)c2cn(Cc3ccc(F)cc3)c3ccc(F)cc3c2=O)cc1	-10%	-8%
CC(=O)Oc1cc(O)c2c(=O)c(OC(C)=O)c(-c3ccc(OC(C)=O)c(OC(C)=O)c3)oc2c1	-26%	-5%
COc1ccc(S(=O)(=O)N(C)c2ccc(C(=O)Nc3c(C)n(C)n(-c4ccccc4)c3=O)cc2)cc1	-19%	-10%
CCOC(=O)c1c(S(=O)(=O)NCC(=O)NCc2ccccc2)c(C)n(C)c1C	-2%	-1%
O=C(COC(=O)COc1ccccc1F)NCc1ccco1	-14%	-8%
O=C(c1ccc2nc(N3CCOCC3)sc2c1)N1CCN(C(=O)c2ccco2)CC1	i	1%
CCCCCN(C(=O)CCC(=O)OCC(=O)c1ccc(C(C)(C)C)cc1)c1c(N)n(CCCC)c(=O)[nH]c1=O	-22%	-21%
CCCCNC(=O)C1CCC(Cn2c(=O)c3sccc3n(CC(=O)N3CCCC3)c2=O)CC1 (centres undefined)	-13%	5%
COc1ccc(-c2nnc(SCC(=O)Oc3c(C)cccc3C)o2)cc1OC	-20%	-17%
OCCNCc1cccc(OCc2ccccc2Cl)c1	-21%	-19%
Cc1cccc(Cn2nc(C)cc2NC(=O)Cn2cc([N+](=O)[O-])cn2)c1	i	-5%
COc1cccc(NC(=O)C2CCC(CNS(=O)(=O)c3csc(C(N)=O)c3)CC2)c1 (centres undefined)	-14%	-3%
O=C(OCc1nc2ccc(Cl)cc2n1CCO)c1ccccc1	-10%	-11%
O=C(CC(=O)c1ccccc1)Nc1cccnc1	i	-6%
CCNc1nc(C#N)nc(NCC)n1	19%	-8%
Cc1ccccc1Nc1sc(C(=O)c2ccc3c(c2)OCO3)c(N)c1S(=O)(=O)c1ccccc1	-25%	-18%
CCN(CC(=O)NCc1cccs1)C(=O)c1cccc(S(=O)(=O)NC)c1	-9%	1%
Cc1ccc(O)c(NC(=O)C2CC(c3cccc(Br)c3)=NO2)c1 (centres undefined)	?	-19%
COCCC(=O)N1CCC(Oc2ccc(C(=O)NCc3ccon3)cc2)CC1	i	-4%
CCn1ccnc1CNC(=O)CC1C(=O)NCCN1Cc1ccccc1F (centres undefined)	i	-12%
CSc1ncnc2c1ncn2CCCN(C)CCc1ccccn1	-7%	-2%
COC(=O)c1sc(N)c(C(=O)OC)c1COC(=O)CNS(=O)(=O)c1ccc(C)c(C)c1	i	-2%
O=C(O)CCC(=O)Nc1ccc(N=Nc2ccccc2)cc1	-2%	4%
Cc1onc(-c2ccccc2)c1C(=O)N/N=C/c1ccc(O)c([N+](=O)[O-])c1	-19%	-9%
CCCC(=O)Nc1ccc(Cl)c(NC(=O)c2cccnc2Cl)c1	nt	-22%
CC(=O)N1N=C(c2c(-c3ccccc3)c3cc(C)ccc3[nH]c2=O)CC1c1ccco1 (centres undefined)	?	-26%
COc1cccc(CNS(=O)(=O)c2cc3c(cc2C)NC(=O)CO3)c1	15%	-11%
CC[C@@H]1C(c2cccc(C)c2)=NN(c2ccccc2)[C@H]1C(=O)N1CCOC1=O	-25%	-25%
Cc1cc(C)c(S(=O)(=O)c2cc(F)ccc2C)c(Cl)n1	i	-25%
Cc1cccc(C)c1NC(=O)Cn1nc(C)c2sc3ccccc3c2c1=O	-17%	-16%
COC(=O)C(CCSC)NC(=O)C12CC3CC(CC(C3)C1)C2 (centres undefined)	-15%	-11%
Nc1cccc(-c2cn3ccsc3n2)c1	-6%	-4%
O=C(CN1C(=O)c2cccc3cccc1c23)Nc1ccccc1	-11%	-4%
CCCn1c(C)cc(/C=C(\C#N)C(=O)OCC(=O)Nc2cc(OC)c(OC)c(OC)c2)c1C	i	0%

Quoted from the listing.
Under Vaccinia mCherry, `CCN(CC(=O)NCc1cccs1)C(=O)c1cccc(S(=O)(=O)NC)c1` reads -9%
Under Vaccinia mCherry, `COC(=O)C(CCSC)NC(=O)C12CC3CC(CC(C3)C1)C2` (centres undefined) reads -15%
Under Vaccinia mCherry, `CCNc1nc(C#N)nc(NCC)n1` reads 19%
Under Vaccinia Venus, `COCCC(=O)N1CCC(Oc2ccc(C(=O)NCc3ccon3)cc2)CC1` reads -4%
Under Vaccinia Venus, `Nc1cccc(-c2cn3ccsc3n2)c1` reads -4%
Under Vaccinia Venus, `COc1cccc(CNS(=O)(=O)c2cc3c(cc2C)NC(=O)CO3)c1` reads -11%

The listing continues:
SMILES	Vaccinia mCherry	Vaccinia Venus
O=C(NCc1ccccc1)c1ccc(CSc2ccccc2)o1	i	-7%
O=C(CN1C(=O)NC2(CCCc3ccccc32)C1=O)NCc1ccco1 (centres undefined)	i	-24%
COc1cc(CNC(=O)C2CC2)ccc1OCc1ccccc1	20%	-8%
O=C(CCCc1nc2ccccc2s1)NNC(=O)CCN1CCN(Cc2ccccc2)CC1	?	?
CC(C)c1ccccc1NC(=O)CN1C(=O)c2ccccc2C1=O	i	-12%
CC(C)N(Cc1nnc(-c2ccccc2Cl)o1)C(=O)COc1cccc(Cl)c1	i	-18%
Cc1cccc(C)c1C(=NCCN(C)C)c1ccccc1	-3%	-17%
O=C(NC1CCCC1)c1ccc(Cl)c(S(=O)(=O)N2CCCCC2)c1	i	-7%
COc1ccc(/C=C/C(=O)Nc2cccc(C(C)=O)c2)cc1	-18%	-18%
CC(NC(=O)Cn1ncc2c3ccccc3n(Cc3ccc(F)cc3)c2c1=O)c1ccccc1 (centres undefined)	-18%	-20%
CC(=O)c1cccc(NC(=O)c2c(-c3ccccc3)c(-c3ccccc3)nn(C)c2=O)c1	-8%	-9%
COc1ccc(S(=O)(=O)N2CCOCC2)cc1NC(=O)CSc1nnc(NC2CC2)s1	-10%	-22%
CC(C)(C)[C@H]1C=C(C(=O)NCc2ccccc2)O[C@@H](OCCCCO)C1	-10%	-6%
Cc1ccc(C)c(NC(=S)NC2CC3CCC(C2)N3Cc2ccco2)c1 (centres undefined)	-9%	-9%
CC(=O)NC(Cc1cccc(C)c1)C(=O)NC1CCN(c2ncccc2[N+](=O)[O-])CC1 (centres undefined)	-21%	-6%
COc1ccc(C(CC(=O)NCc2ccccc2)N2Cc3ccccc3C2=O)cc1 (centres undefined)	-1%	4%
Cc1ccccc1NS(=O)(=O)c1ccc2[nH]cc(C(=O)N(C)Cc3ccco3)c(=O)c2c1	-9%	-4%
COc1ccc(OC)c(CNC(=O)c2nn(-c3ccc(OC)c(Cl)c3)c(=O)c3c2c2ccccc2n3C)c1	i	-3%
O=C(Nc1nc(-c2cc(F)ccc2F)cs1)c1cccc(N2C(=O)CCC2=O)c1	-9%	-4%
CC(C)(C)N1C(=O)[C@H]2[C@@H](c3ccc(Br)cc3)N3C(=O)N(c4cccc(F)c4)C(=O)[C@@]3(Cc3ccccc3)[C@H]2C1=O	-15%	-11%
N#CC(=Nc1cccc(F)c1)C1=C(O)c2ccccc2C1=O	10%	5%
COC(=O)C(=Cc1ccncc1)c1cccc2ccccc12	-6%	-22%
CS(=O)(=O)N1CCC(C(=O)Nc2ccccc2F)CC1	-13%	2%
COC(=O)c1ccccc1NC(=O)CSc1nc(N)cc(=O)[nH]1	-15%	-10%
CCn1c(SCC(=O)NNC(=S)Nc2ccc(C)cc2)nnc1-c1ccc(Cl)cc1	4%	-9%
O=C(c1cnn(C(=O)COc2ccc(Cl)cc2)c1)c1ccccc1O	i	-5%
O=C(O)c1cccc(N/N=C/c2ccc(-c3ccccc3)cc2)c1	-27%	-16%
Cc1ccc(CNC(=O)CCS(=O)(=O)c2cc3c(cc2C)NC(=O)CO3)cc1	9%&-5%	-5%&2%
CSc1nc2sc3c(c2c(=O)n1Cc1ccccc1)CCC(C(C)(C)C)C3 (centres undefined)	-8%	-7%
CCOC(=O)c1sc(NC(=O)C(OC(C)=O)c2ccccc2)nc1C (centres undefined)	-6%	-10%
O=c1c2cnn(-c3ccccc3)c2nnn1Cc1ccccn1	-14%	-12%
COc1ccc(/C=N/NC(=O)c2cc(C(C)(C)C)[nH]n2)cc1COc1ccc(F)cc1F	-15%	?
COc1cccc(OCc2nc3ccccc3n2C)c1	-10%	0%
CC(=O)N1CC=CC1(CC(C)C)C(=O)NCCN1CCOCC1 (centres undefined)	-15%	-5%
O=C(COc1ccccc1)c1cn(Cc2ccccc2)c2ccccc12	i	-16%
CN(N=Cc1ccc([N+](=O)[O-])cc1)c1ccccn1	-8%	-2%
NS(=O)(=O)c1cc2c(cc1Cl)NC(c1ccccc1OCC(=O)O)NS2(=O)=O (centres undefined)	-8%	-10%
CSc1ccccc1NC(=O)C(=O)c1c[nH]c2ccccc12	-2%	3%
Cc1ccc(S(=O)(=O)Nc2ccc(S(=O)(=O)Nc3cc(C)nc(C)n3)cc2)cc1	i	-9%
CCOc1ccc(S(=O)(=O)NN2Cc3ccccc3C2=N)cc1	-9%	-17%

Among those listed so far, these contain a nitro group on carbon.
SMILES	Vaccinia mCherry	Vaccinia Venus
Cc1cccc(Cn2nc(C)cc2NC(=O)Cn2cc([N+](=O)[O-])cn2)c1	i	-5%
Cc1onc(-c2ccccc2)c1C(=O)N/N=C/c1ccc(O)c([N+](=O)[O-])c1	-19%	-9%
CC(=O)NC(Cc1cccc(C)c1)C(=O)NC1CCN(c2ncccc2[N+](=O)[O-])CC1 (centres undefined)	-21%	-6%
CN(N=Cc1ccc([N+](=O)[O-])cc1)c1ccccn1	-8%	-2%

(listing goes on)
SMILES	Vaccinia mCherry	Vaccinia Venus
CNC1(c2ccccc2Cl)CCCCC1=O (centres undefined)	-2%	-11%
Nc1nc2c(ncn2[C@@H]2O[C@H](CNS(=O)(=O)N3CCCC3)[C@@H](O)[C@H]2O)c(=O)[nH]1	10%	3%
COc1ccc(OC(C)C(=O)NCc2cccnc2)cc1 (centres undefined)	-11%	-1%
COc1ccc(NC(=O)COc2ccccc2)c(OC)c1	-26%	-17%
CCOc1ccc(CCNC(=O)c2ccc(CSCc3ccccc3C)o2)cc1OCC	0%	-20%
O=C(COC(=O)CC1CC2CCC1C2)Nc1cc([N+](=O)[O-])ccc1F (centres undefined)	i	-22%
COc1ccc(Cl)cc1NC(=O)NC(C)C(C)(C)C (centres undefined)	-22%	-24%
Cc1ccc(C(=O)N2CCN(c3ccc(NC(=O)c4ccc(Br)o4)cc3)CC2)cc1	?	-23%
Cc1cccc(C2c3[nH]c4ccccc4c3CCN2Cc2cnn(-c3ccc(F)cc3)c2)n1 (centres undefined)	i	-1%
COc1ccccc1CNC(=O)Cc1c[nH]c2ccccc12	-20%	-12%
Cc1oc(-c2cccc(Cl)c2)nc1CSc1nc2ncccc2[nH]1	-5%	-6%
NC(=O)CSc1nc2ccccc2n1-c1ccccc1	i	-11%
Clc1ccc(C(c2ccccc2Cl)C(Cl)Cl)cc1 (centres undefined)	-10%	-3%&-4%
CC(=O)Oc1ccccc1-n1c(C)nc(=O)c(-c2ccccc2)c1C	?	-8%
COc1ccccc1CNC(=S)NCCc1ccccc1	-4%	4%
CCN1/C(=C2\C(=O)N(C)C(=S)N2C)C=Cc2ccccc21	-24%	-14%
O=C(Cn1cnc2ccccc2c1=O)Nc1ccc(S(=O)(=O)N2CCOCC2)cc1	-16%	-12%
O=C(COc1ccccc1)NCc1nnc(SCC(=O)Nc2nccs2)n1-c1ccccc1	2%	5%
NC(=S)NC1CC2CC1C1C=CCC21 (centres undefined)	-10%	-7%
CCCNC(=O)c1onc(CSc2ccc(F)cc2)c1C(=O)NCCOC	i	-1%
CCCCN1C(=O)NC(=O)/C(=C/c2cnc(SC)nc2)C1=O	nt	0%
COC(=O)C1=C(c2cccc(OCc3ccccc3)c2)C[C@@H]2CC[C@H]1N2C(=O)NCc1cccc(C(F)(F)F)c1	-13%	?
CCC(=O)N1c2ccc(S(=O)(=O)CCC(=O)NCCC3=CCCCC3)cc2CC1C (centres undefined)	-19%	-19%
CN1C(=O)CC(n2c(CO)nc3ccccc32)C1=O (centres undefined)	-9%	-7%
COc1cc(C)c(-c2nc(CN3C[C@@H]4C[C@@H](C3)c3cccc(=O)n3C4)c(C)o2)cc1C	-11%	-7%
CC(=O)c1ccc(N2CCN(C(=O)c3ccc(Cl)c(S(=O)(=O)NC4CC4)c3)CC2)c(F)c1	?	?
Cc1cc(=O)c2cc(C(=O)Nc3ccccc3C)ccc2[nH]1	0%	1%
CC1=NN(c2ccc(Cl)c(C(=O)O)c2)C(=O)C1	i	2%
NC(=O)c1ccc(NC(=S)NCc2ccco2)cc1	-15%	1%
CCCCNc1nc(Oc2ccc(OCCC)nn2)nc(N(C)C)n1	-15%	-7%
Cc1ccsc1C(=O)OCC(=O)c1cc2ccccc2o1	i	-5%
NC(=O)c1oc2ccccc2c1NC(=O)c1nc2ccccc2s1	nt	-8%
O=C(N/N=C/c1cccnc1)C1CCCN(S(=O)(=O)c2ccccc2)C1 (centres undefined)	-24%	-13%
